Screens as filed in PubChem.
CSC inhib: cancer stem cell inhibition; cancer stem cell-like cells viability, luminescence; inhibition, % at 7.5 µM; actives 1.1% (n = 300,000);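 active = mean at 75% or more and at least half the replicates too; tested in HMLE shEcad cells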;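 also: 0% = median of negative and 100% = median of positive control wells; the first replicate is given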
PABP FP inh: PABP-poly(A) binding inhibition; actives 1% (n = 290,000); PABP-poly(A) RNA binding, fluorescence polarization; AID 2014; P11940; inhibition, % at 35 µM;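 active = 50% or more with normal probe brightness, or confirmed in later tests; about a fifth of its hits are not listed in these tables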;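 also: calls also rest on retests at 20 µM and on dose response follow-up; controls were probe without protein and protein plus probe with vehicle; some compounds called inactive have numbers as strong as hits; many hits fall short of the cut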
Target sequence (P11940 whole entry, looked up): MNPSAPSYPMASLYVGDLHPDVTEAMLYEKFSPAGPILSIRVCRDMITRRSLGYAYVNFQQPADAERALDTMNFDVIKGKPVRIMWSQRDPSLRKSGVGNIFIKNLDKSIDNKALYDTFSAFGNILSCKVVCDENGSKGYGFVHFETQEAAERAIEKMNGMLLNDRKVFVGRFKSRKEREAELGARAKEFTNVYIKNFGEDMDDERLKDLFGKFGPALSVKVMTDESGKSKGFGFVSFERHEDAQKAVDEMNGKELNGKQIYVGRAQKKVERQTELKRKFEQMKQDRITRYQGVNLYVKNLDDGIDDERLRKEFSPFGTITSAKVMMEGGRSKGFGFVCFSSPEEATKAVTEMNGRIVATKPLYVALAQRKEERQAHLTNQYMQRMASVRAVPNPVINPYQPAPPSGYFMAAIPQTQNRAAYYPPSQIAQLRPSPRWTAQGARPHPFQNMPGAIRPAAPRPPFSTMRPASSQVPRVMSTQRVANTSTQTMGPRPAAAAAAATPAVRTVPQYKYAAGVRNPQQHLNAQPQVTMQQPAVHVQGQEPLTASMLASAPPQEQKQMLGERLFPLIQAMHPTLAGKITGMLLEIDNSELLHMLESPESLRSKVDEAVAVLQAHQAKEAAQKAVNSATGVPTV
Rce1 inhib: yeast Ras-converting enzyme inhibition. actives 0.27% (n = 290,000). yeast membranes, quenched prenylated peptide cleavage fluorescence. calls only;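 active = fall in fluorescence gain of 50% or more versus controls, with final raw signal at or below 3038400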;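 also: plate controls were neutral control wells for no effect and wells lacking membranes for full effect; tested at 10 µM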
eIF4H FP inh: inhibitors of RNA binding by human eIF4H. Q15056. eIF4H fluorescence polarization binding assay. inhibition, % at 35 µM. actives 0.94% (n = 290,000). AID 2012;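 active = 50% or more with normal probe brightness, or confirmed in later tests; about a fifth of its hits are not listed in these tables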;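 also: calls also rest on retests at 20 µM and on dose response follow-up; 0% = protein and probe with vehicle and 100% = probe without protein; strong numbers were not always called active; many hits fall short of the cut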
Env fusion inh: inhibitors of HIV Env-mediated cell fusion; HeLa-JRFL Env/CEM21 cell fusion, luciferase; inhibition, % at 12.3 µM; actives 1.1% (n = 360,000);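 active = mean replicate inhibition score of at least 50 and every replicate individually at or above 50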;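 also: 0% = plate neutral controls and 100% = maraviroc near 300 nM; one replicate is shown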
UUG fidelity: modulators of start codon recognition fidelity in yeast; S. cerevisiae UUG-firefly luciferase reporter, luminescence/redox ratio; activity score, % at 18.7 µM; actives 0.13% (n = 350,000); AID 602363;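 active = replicate mean at a twofold rise or more, about +100% in these data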;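 also: firefly luciferase made from a UUG start codon reports start codon fidelity; reporter light over untreated wells divided by growth signal over untreated wells; some hits fall short of that in this replicate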
MT1-MMP act inh: blocks activation of human MT1-MMP; AID 651647; HT1080 RFP-PRO-GFP cells, GFP/RFP ratio fluorescence, overnight; percent of plate control window, DMSO zero; actives 0.061% (n = 360,000); GFP/RFP ratio change, % at 20 µM;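 active = GFP/RFP ratio change of at least 30% with cell ATP level not reduced by more than half and red fluorescence within 50% of control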; also: strong numbers were not always called active
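Material – HT1080 RFP-PRO-GFP cells · Control set – DMSO wells and RFP-L50D-GFP cells · Incubation – overnight cell settling, then overnight compound exposure, 37 °C, 5% CO2 · Compound dosing – single-point 20 µM compound, 1% DMSO · Read-out – GFP/RFP fluorescence ratio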
eIF4H FP inh retest: second read-out of eIF4H FP inh, no call of its own (marks repeat the call); inhibition, %; compound at 20 µM; confirmation average;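 mean of two retest wells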
PABP FP inh retest: second read-out of PABP FP inh, no call of its own (marks repeat the call); inhibition, %; compound at 20 µM; confirmation repeats;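 mean of two retest wells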
MT1-MMP act inh RFP: further read-out of MT1-MMP act inh, marked with its call; RFP signal change, %; measured here: RFP expression control read;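 0 = vehicle wells; hits needed this value within 50% of zero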
Starred values were filed as active, the others as inactive; i = inactive; x = not tested or not shown; & = joins results of further samples.

SMILES | CSC inhib | PABP FP inh | Rce1 inhib | eIF4H FP inh | Env fusion inh | UUG fidelity | MT1-MMP act inh | MT1-MMP act inh RFP | others
Cc1ccc(-n2ncc3c(SCc4ccccc4)ncnc32)cc1 | 18 | -5 | i | -3 | -93 | x | 8 | -2
Cc1ccc(-c2c(NCCc3ccccc3)c(=O)c2=O)cc1 | -8 | -8 | i | 4 | -45 | -19 | 5 | -2
O=[N+]([O-])c1ccc(N2CCN(C(=S)c3cccc([N+](=O)[O-])c3)CC2)cc1 | 23 | 9 | i | -10 | -3 | 0 | 8 | -3
O=C(Nc1ncn[nH]1)c1ccc([N+](=O)[O-])cc1[N+](=O)[O-] | -22 | -6 | i | -6 | -82 | -16 | 1 | -2
COc1cc(OC)c(OC)cc1/C=N/NC(=S)NCC1CCCO1 (stereo not drawn) | -5 | -2 | i | -4 | 28 | -33 | 8 | 0
CCc1cccc(NC(=O)CN(C)C2=NS(=O)(=O)c3ccccc32)c1 | -11 | x | x | x | x | -20 | 1 | 0
Cc1ccc(F)c(S(=O)(=O)NC(=O)C2(C)CCN2C(=O)c2cccc3ccccc23)c1 (stereo not drawn) | x | x | x | x | 2 | 5 | -2 | 2
CCn1c(SCC(=O)Nc2cc(NC(C)=O)ccc2OC)nnc1-c1cccnc1 | -18 | 3 | i | 3 | x | -19 | 2 | 2
Cc1ccc(CN2CC(=O)N3[C@H]4c5cc(Cl)ccc5OC[C@@H]4[C@H](c4ccccc4)[C@]3(C)C2=O)cc1 | 7 | x | x | x | 33 | -18 | -2 | -6
COc1ccc(NS(=O)(=O)c2cc(NC(=O)C3=NN(c4ccccc4)C(=O)CC3)ccc2OC)cc1 | 13 | x | x | x | x | -5 | -3 | -3
CCOc1ccc(C(=O)Nc2ccc(NC(=O)c3ccccc3)c(C)c2)cc1[N+](=O)[O-] | x | 1 | i | -2 | 17 | -2 | 0 | -6
COc1cc(O)c(C(CC(=O)N2CCCC(C)C2)c2cc(OC)c(OC)c(OC)c2)c(OC)c1 (stereo not drawn) | 9 | 1 | i | -4 | -48 | -13 | -3 | -1
Cn1c(CO)cnc1S(=O)(=O)Cc1ccc([N+](=O)[O-])cc1 | 1 | -7 | i | 3 | x | -9 | 4 | 4
CCCCOC(=O)c1ccc(NC(=S)NC(=O)c2c(Br)c(C)nn2C)cc1 | -1 | 3 | i | -4 | x | 4 | 1 | -3
C=CCNC(=O)COc1ccc(S(=O)(=O)NC2CCCCC2)cc1 | 1 | -4 | i | -7 | x | -3 | 2 | 3
C[C@H](CO)N1C[C@H](C)[C@@H](CN(C)C(=O)C2CCCCC2)OCc2cnnn2CCCC1=O | x | x | x | x | -12 | -8&7 | 6 | 8
Cc1ccc[n+](CC(=O)Nc2nc3ccccc3s2)c1 | -11 | -2 | i | -4 | -6 | x | -7 | 3
Cc1c(C(=O)OC2CCCC2)[nH]c2c1C(=O)CC(c1ccco1)C2 (stereo not drawn) | 64 | -4 | i | 28 | -411 | 6 | -2 | -25
COc1cc(CC(=O)OCC(=O)Nc2cccc([N+](=O)[O-])c2)cc(OC)c1OC | -2 | -10 | i | -7 | -3 | x | 0 | 2
Cn1c(Cc2cccs2)nnc1SCC(=O)Nc1ccc(F)cc1F | -7 | x | i | x | 1 | -19 | 2 | 1
Cc1ccc(C(=O)Cn2c(C)cc(C)c(C#N)c2=O)cc1 | 0 | 3 | i | -2 | x | 3 | -1 | 3
COc1ccc(OC)c(C(C(=O)NC2CCCCC2)N(C(=O)c2ccccn2)c2cccnc2)c1 (stereo not drawn) | x | 16 | i | 1 | 5 | -30 | -1 | 6
CN(Cc1cnn(C)c1)C(=O)C1CCC(=O)N(Cc2ccc(Cl)cc2)C1 (stereo not drawn) | -19 | 2 | i | -2 | 0 | -12 | 0 | 4
CN(C)c1ccc(/C=C(\NC(=O)c2ccccc2)C(=O)N/N=C/c2ccc(C(=O)O)cc2)cc1 | x | -7 | i | -1 | 8 | -6 | 1 | 6
O=C(Nc1ccc(N2CCCC2)cc1)C(Cl)c1ccccc1 (stereo not drawn) | x | -2 | i | 4 | x | -27 | 7 | 3
SMILES | CSC inhib | PABP FP inh | Rce1 inhib | eIF4H FP inh | Env fusion inh | UUG fidelity | MT1-MMP act inh | MT1-MMP act inh RFP | others
CN(C)S(=O)(=O)c1ccc(C(=O)OCn2nnc3ccccc3c2=O)cc1 | -7 | -1 | i | 3 | -10 | -5 | 1 | 2
Cc1ccc(C)n1CCN1CCN(C(=O)CC#N)CC1 | 9 | 14 | i | 58 | -9 | x | 0 | 8 | eIF4H FP inh retest=-1;PABP FP inh retest=3
O=C(c1ccccc1)N1CCN(CC(O)COc2ccc(Br)cc2)CC1 (stereo not drawn) | 2 | -4 | i | -12 | 6 | -25 | -1 | -8
Cc1ccc(S(=O)(=O)N(C)c2ccc(C(=O)NCc3ccccc3F)cc2)cc1 | 4 | x | i | x | 0 | x | 2 | -4
CSc1ccc(/C=C(\NC(=O)c2ccc(C)cc2)C(=O)NN)cc1 | -16 | 6 | i | -6 | -11 | -11 | 0 | 6
COc1cccc(/C(O)=C2/C(=O)C(=O)N(Cc3ccco3)C2c2ccncc2)c1 (stereo not drawn) | 8 | -5 | i | -6 | x | -16 | -9 | 3
Cc1cccc(NC(=O)c2cc(-c3ccccn3)nc3ccccc23)c1C | x | 10 | i | -1 | 7 | x | -6 | -23
CCCCn1c(N)c(N(CC(C)C)C(=O)C2CCC2)c(=O)[nH]c1=O | x | x | x | x | 9 | -12 | -1 | 3
Cc1cccc(C(=O)N[C@H](C(=O)NCCc2ccc(Cl)cc2)C(C)C)c1 | 0 | 12 | i | -7 | 17 | -20 | -10 | -5
COc1ccccc1CNC(=O)COC(=O)/C=C/c1ccc(OC(F)F)c(OC)c1 | -9 | x | i | x | -7 | x | 4 | 4
O=C(Nc1nc2ccccc2[nH]1)c1ccc(F)cc1 | x | -11 | i | -8 | x | -55 | 7 | -1
COc1ccc(NC(=O)CN2CCN(S(=O)(=O)c3ccc(F)cc3)CC2)cc1Cl | -10 | -5 | i | -7 | x | 14 | -1 | -2
CCCc1sc(N2CCCC(C(N)=O)C2)nc1-c1ccccc1 (stereo not drawn) | 2 | -4 | i | 0 | x | 10 | -2 | 0
COc1ccc(CCNC(=O)C2CC(c3ccc(C(F)(F)F)cc3)=NO2)cc1 (stereo not drawn) | -7 | -1 | i | 8 | 13 | -10 | 5 | -1
COc1ccc(-c2nn(-c3ccccc3)cc2C(=O)N(C)CC(=O)Nc2ccc(N3CCOCC3)cc2)cc1 | x | x | i | x | -7 | -13 | 5 | 4
Cc1cc(C(=O)OCC(=O)Nc2cc(S(=O)(=O)N(C)C)ccc2C)c2ccccc2n1 | -8 | 18 | i | -13 | 15 | 0 | -1 | -15
O=C(NCCN1CCCCC1)c1ccco1 | -4 | -2 | i | 8 | x | -11 | 2 | 5
CSc1ccccc1NC(=O)C1CC(c2ccccc2O)=NO1 (stereo not drawn) | x | 8 | i | -4 | -17 | -10 | 3 | -9
COc1ccccc1-n1cnnc1SCC(=O)NCc1cccs1 | 16 | 5 | i | -5 | x | -12 | 3 | 5
COc1ccc(S(=O)(=O)N(C(=O)c2ccco2)c2cc3sc(=O)oc3c3ccccc23)cc1 | 62 | -6 | i | 4 | 19 | x | 4 | 2
CCCCOc1ccc(C(=O)Nc2ccc(N3CCN(C(C)=O)CC3)cc2)cc1 | 8 | -6 | i | 1 | 13 | -9 | 11 | -10
CCC(CC)c1nnc(NC(=O)c2cc([N+](=O)[O-])ccc2N2CCCCC2)s1 | 0 | 10 | i | 3 | -7 | x | -1 | -4
COc1ccc(Br)cc1CN(C)CC(=O)Nc1cc(Cl)cc(Cl)c1 | 51 | -3 | i | -3 | 36 | -6 | -3 | -8
N#Cc1ccc(-c2ccccc2)nc1SCC(=O)c1cc2ccccc2oc1=O | 20 | -6 | i | -3 | -67 | 3 | 0 | 2
CCOc1ccc(NC(=S)N(CCOC)C(C)c2ccco2)cc1 (stereo not drawn) | -9 | 4 | i | -8 | -1 | -7 | 12 | 3
SMILES | CSC inhib | PABP FP inh | Rce1 inhib | eIF4H FP inh | Env fusion inh | UUG fidelity | MT1-MMP act inh | MT1-MMP act inh RFP | others
CCN(CC)c1ccc(Nc2nc(N3CCOCC3)c3ccccc3n2)cc1 | 29 | 25 | i | -4 | 57* | -13 | 2 | -13
O=C(O)CN1C(=O)C2(OCCO2)c2cc(Br)ccc21 | -5 | x | i | x | -1 | -12 | -1 | 3
O=c1[nH]c2cc3c(cc2cc1CN(Cc1ccco1)C(=S)NCCCN1CCOCC1)OCCO3 | -10 | 9 | i | -7 | -18 | x | 0 | 6
COc1cccc(C(O)c2nc(-c3ccc(N(C)C)cc3)cs2)c1 (stereo not drawn) | x | x | x | x | -22 | -5 | 8 | -22
Cc1cc(C)cc(OCC(=O)NNC(=O)C2CCCO2)c1 (stereo not drawn) | -8 | -13 | i | 0 | -13 | x | 1 | 0
NC(=O)C1CCN(C(=O)COc2ccc3c(c2)oc(=O)c2ccccc23)CC1 | -4 | 15 | i | -1 | x | -4 | 1 | -1
CN(C)c1ccc(NC(=O)c2ccc3nc[nH]c3c2)cc1 | 7 | 10 | i | 5 | -29 | -22 | 8 | 6
CCCS(=O)(=O)N1CCn2c(nc3ccccc32)C1 | -17 | -4 | i | 1 | -27 | -16 | 5 | 1
Nc1nc(C(=O)N2CCOCC2)nn1S(=O)(=O)c1ccccc1 | 13 | 39 | i | -13 | -10 | -15 | -1 | 7
COCCn1nnnc1SCC(=O)c1ccccc1 | 2 | -2 | i | -10 | -26 | -11 | 3 | 7

Sorted by length of the SMILES (rising): 12 of the compounds above
SMILES | CSC inhib | PABP FP inh | Rce1 inhib | eIF4H FP inh | Env fusion inh | UUG fidelity | MT1-MMP act inh | MT1-MMP act inh RFP | others
COCCn1nnnc1SCC(=O)c1ccccc1 | 2 | -2 | i | -10 | -26 | -11 | 3 | 7
CCCS(=O)(=O)N1CCn2c(nc3ccccc32)C1 | -17 | -4 | i | 1 | -27 | -16 | 5 | 1
Cc1cc(C)cc(OCC(=O)NNC(=O)C2CCCO2)c1 (stereo not drawn) | -8 | -13 | i | 0 | -13 | x | 1 | 0
O=C(O)CN1C(=O)C2(OCCO2)c2cc(Br)ccc21 | -5 | x | i | x | -1 | -12 | -1 | 3
CN(C)c1ccc(NC(=O)c2ccc3nc[nH]c3c2)cc1 | 7 | 10 | i | 5 | -29 | -22 | 8 | 6
Nc1nc(C(=O)N2CCOCC2)nn1S(=O)(=O)c1ccccc1 | 13 | 39 | i | -13 | -10 | -15 | -1 | 7
COc1cccc(C(O)c2nc(-c3ccc(N(C)C)cc3)cs2)c1 (stereo not drawn) | x | x | x | x | -22 | -5 | 8 | -22
COc1ccc(Br)cc1CN(C)CC(=O)Nc1cc(Cl)cc(Cl)c1 | 51 | -3 | i | -3 | 36 | -6 | -3 | -8
CCCCOc1ccc(C(=O)Nc2ccc(N3CCN(C(C)=O)CC3)cc2)cc1 | 8 | -6 | i | 1 | 13 | -9 | 11 | -10
NC(=O)C1CCN(C(=O)COc2ccc3c(c2)oc(=O)c2ccccc23)CC1 | -4 | 15 | i | -1 | x | -4 | 1 | -1
CCC(CC)c1nnc(NC(=O)c2cc([N+](=O)[O-])ccc2N2CCCCC2)s1 | 0 | 10 | i | 3 | -7 | x | -1 | -4
O=c1[nH]c2cc3c(cc2cc1CN(Cc1ccco1)C(=S)NCCCN1CCOCC1)OCCO3 | -10 | 9 | i | -7 | -18 | x | 0 | 6

The list is partial; rates above refer to the full screens.
